# Ecoli rRNA inh = inhibits bacterial ribosomal RNA function over humanized ribosomes. E. coli WT GFP vs humanized-ribosome RFP mutants, fluorescence, 24 h; stronger effect = lower value; DMSO median 0, no signal -100. GFP signal change (wild-type ribosome), % (concentration not given with the values). hit rate 1.6% among 350,000. AID 720706;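 active = significant combined selectivity score with lowered wild-type GFP, culture density cut under 30%, mutant RFP and density less affected; inactive = any of these conditions unmet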; also: one replicate is shown; some compounds called inactive have numbers as strong as hits
# AF4-AF9 inh = inhibitors of human MLL-AF4/AF9 interaction; P42568; AlphaScreen, biotin-AF4 peptide binding to FLAG-AF9; inhibition, % at 10 µM; hit rate 0.47% among 350,000;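 active = every replicate reaching a set inhibition limit, whatever the replicate mean, cut at about 25% in these data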;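 also: 0% = plate neutral control median and 100% = total signal loss; the record names both 10 and 1 µM as test concentration; the first replicate is given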
# Target sequence (P42568 whole entry, looked up): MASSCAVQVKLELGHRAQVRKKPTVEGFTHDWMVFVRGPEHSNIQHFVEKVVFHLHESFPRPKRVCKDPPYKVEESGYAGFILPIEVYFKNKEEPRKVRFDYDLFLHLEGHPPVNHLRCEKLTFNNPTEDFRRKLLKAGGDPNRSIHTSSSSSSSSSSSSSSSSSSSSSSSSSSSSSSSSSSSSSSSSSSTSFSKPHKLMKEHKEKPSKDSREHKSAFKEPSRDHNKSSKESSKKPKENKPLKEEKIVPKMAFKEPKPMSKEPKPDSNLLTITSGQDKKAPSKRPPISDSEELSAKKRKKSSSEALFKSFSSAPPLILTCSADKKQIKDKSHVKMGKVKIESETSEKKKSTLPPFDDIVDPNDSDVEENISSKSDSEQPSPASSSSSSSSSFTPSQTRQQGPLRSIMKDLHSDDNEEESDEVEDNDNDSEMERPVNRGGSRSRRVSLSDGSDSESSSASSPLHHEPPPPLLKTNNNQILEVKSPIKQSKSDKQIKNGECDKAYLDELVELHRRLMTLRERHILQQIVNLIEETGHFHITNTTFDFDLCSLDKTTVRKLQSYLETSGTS
# Ecoli rRNA inh OD600 = also measured in Ecoli rRNA inh; calls as there; OD600 change, %; measured here: OD600 growth;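 optical density of the mix in the first replicate; 0 = DMSO median and -100 = no signal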
# Ecoli rRNA inh RFP = second read-out of Ecoli rRNA inh, no call of its own (marks repeat the call); RFP signal change, %; measured here: RFP humanized mutant strains;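 first replicate; 0 = DMSO median and -100 = no signal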
# Starred values were filed as active, the others as inactive.
# Start of the listing, in advance (two entries):
# Short forms: A = Ecoli rRNA inh; B = Ecoli rRNA inh OD600; C = Ecoli rRNA inh RFP; D = AF4-AF9 inh
> COCCNC(=O)C[C@H]1CC[C@H]2[C@@H](COc3ccc(NC(=O)c4cnccn4)cc3C(=O)N2C)O1
  A = -1; B = -1; C = -1.6; D = -2.4
> Cc1ccc(S(=O)(=O)Nc2ccc3c(c2)CC(=O)N([C@@H](C)CO)C[C@@H](C)[C@H](CN(C)Cc2ccccc2)O3)cc1
  A = -7; B = -58; C = 30; D = 6.2

# Results, previewed entries included:
# Short forms: A = Ecoli rRNA inh; B = Ecoli rRNA inh OD600; C = Ecoli rRNA inh RFP; D = AF4-AF9 inh
> COCCNC(=O)C[C@H]1CC[C@H]2[C@@H](COc3ccc(NC(=O)c4cnccn4)cc3C(=O)N2C)O1
  A = -1; B = -1; C = -1.6; D = -2.4
> Cc1ccc(S(=O)(=O)Nc2ccc3c(c2)CC(=O)N([C@@H](C)CO)C[C@@H](C)[C@H](CN(C)Cc2ccccc2)O3)cc1
  A = -7; B = -58; C = 30; D = 6.2
> COc1ccccc1CNC(=O)C[C@H]1CC[C@H]2[C@@H](COC[C@@H](O)CN2Cc2ccccc2)O1
  A = -3; B = -13; C = -2.9; D = -4.3
> O=C(NCc1ccncc1)[C@@H]1CCCN1C(=O)[C@@H]1CCCN1C(=O)c1cccs1
  A = 22; B = 8; C = 1.8; D = -4.9
> C[C@@H]1CN([C@H](C)CO)C(=O)Cc2cc(N(C)C)ccc2O[C@@H]1CN(C)S(=O)(=O)c1cn(C)cn1
  A = 4; B = 9; C = -1.5; D = -1.1
> COC(=O)C[C@@H]1C=C[C@@H](NS(=O)(=O)c2ccc(OC)cc2)[C@H](CO)O1
  A = 0; B = 1; C = -1.2; D = -1.7
> C[C@H](CO)N1C[C@H](C)[C@H](CN(C)C(=O)C2CCCCC2)Oc2cc(C#CC(C)(C)O)ccc2S1(=O)=O
  A = -2; B = 3; C = 2.2; D = 0.6
> CC(C)(O)C#Cc1cccc(-c2nc(C(=O)N[C@@H]3CCN(Cc4ccccc4)C3)cc3c2[C@@H](CCO)N(S(=O)C(C)(C)C)C3)c1 (some centres not stated)
  A = 0; B = 7; C = 6.2; D = 5.3
> COc1ccc(CN(C)C[C@@H]2Oc3ccc(NS(=O)(=O)c4ccc(C)cc4)cc3C(=O)N([C@@H](C)CO)C[C@@H]2C)cc1
  A = 2; B = -2; C = 2.3; D = -6.9
> Cc1noc(C)c1NC(=O)N[C@@H]1CC[C@@H](CCNC(=O)C2CCC2)O[C@H]1CO
  A = 0; B = 1; C = 1.1; D = -2.8
> CNC[C@@H]1Oc2ncc(-c3cccc(F)c3)cc2C(=O)N([C@@H](C)CO)C[C@@H]1C
  A = 0; B = 15; C = -0.5; D = 0.1
> CCOC1=C2[C@H](c3cccs3)N(S(=O)(=O)c3ccc(C)cc3)C[C@H]2n2c(=O)n(-c3ccccc3)c(=O)n2C1
  A = 16; B = 22; C = 4.9; D = -3.0
> C[C@H]1COc2cccc(NCCO)c2S(=O)(=O)N1
  A = 27; B = 20; C = 3.6; D = -1.5
> CS(=O)(=O)N1CC2(C1)[C@@H](c1ccccc1)[C@H](CO)N2Cc1ccc(F)cc1
  A = -1; B = 3; C = 1.0; D = -5.8
> COc1ccc(NC(=O)Nc2ccc3c(c2)C(=O)N([C@H](C)CO)C[C@@H](C)[C@H](CN(C)S(=O)(=O)c2ccc(Cl)cc2)O3)cc1
  A = -9; B = -9; C = -2.1; D = 0.8
> O=C(C[C@@H]1C[C@H]2c3cc(NC(=O)Nc4ccccc4F)ccc3O[C@H]2[C@H](CO)O1)NC1CCCC1
  A = -8; B = -5; C = 5.0; D = -4.5
> O=C(Nc1ccc(Cl)cc1)OCC12COCN1COC2
  A = -9; B = -4; C = 3.3; D = 7.0
> COc1ccc(S(=O)(=O)N2CCOCC2)cc1C(=O)NCc1c(C)nn(Cc2ccccc2)c1C
  A = -3; B = 1; C = -2.0; D = -1.8
> CC[C@]12c3[nH]c4ccc(Cl)cc4c3CCN1C(=O)[C@@H](CC(=O)NCCCOC)C[C@@H]2C(=O)N1CCN(C(=O)c2ccco2)CC1
  A = 5; B = 6; C = 0.2; D = 2.0
> OC(c1ccccc1)c1nc(-c2cccc3cccnc23)cs1 (configuration not stated)
  A = -4; B = -8; C = 6.9; D = 1.7
> Cc1noc(C)c1NC(=O)N(C)C[C@H]1Oc2ccc(NC(=O)Nc3ccc(F)cc3)cc2C(=O)N([C@H](C)CO)C[C@H]1C
  A = 1; B = -3; C = 0.9; D = -15
> COc1ccc(NC(=O)N(C)C[C@@H]2Oc3ccc(NC(=O)Nc4ccc(F)cc4)cc3CC(=O)N([C@@H](C)CO)C[C@H]2C)cc1
  A = -1; B = 7; C = -0.2; D = 0.7
> COC(=O)C[C@@H]1C[C@H]2c3cc(NC(=O)Cc4ccncc4)ccc3O[C@H]2[C@@H](CO)O1
  A = 2; B = 2; C = -2.8; D = 1.4
> CN1C(=O)c2cc(NC(=O)c3cccc(F)c3)ccc2OC[C@@H]2O[C@H](CC(=O)Nc3ccccc3)CC[C@@H]21
  A = -4; B = -6; C = 1.3; D = 0.2
> O=C(C[C@@H]1C[C@H]2c3cc(NS(=O)(=O)c4ccc(F)cc4)ccc3O[C@H]2[C@@H](CO)O1)NCc1ccncc1
  A = 2; B = -3; C = -0.8; D = 1.8
> O=C1NC[C@@H](CCCCN2CCN(CCc3ccccc3)C(=O)C2=O)N(Cc2ccccc2)C1=O
  A = 14; B = 15; C = 0.0; D = 1.0
> C[C@H](CO)N1C[C@H](C)[C@@H](CN(C)Cc2cccc(F)c2)Oc2ncc(C3=CCCC3)cc2C1=O
  A = -2; B = -5; C = 8.4; D = 3.7
> COCC#Cc1ccc([C@H]2[C@@H](CO)N3CCCCN(Cc4cncnc4)C[C@@H]23)cc1
  A = 2; B = 4; C = -0.4; D = -0.4
> CN1CCN(C(=O)C[C@@H]2CC[C@@H]3[C@H](COC[C@H](O)CN3S(=O)(=O)c3cccc(Cl)c3)O2)CC1
  A = 6; B = 4; C = -5.3; D = -5.4
> O=C(C(=O)N1CCC(CNC(=O)c2cccs2)CC1)c1cc2ccccc2o1
  A = -8; B = -14; C = -3.4; D = -0.2
> CCC(=O)Nc1ccc2c(c1)C(=O)N(C)C[C@H](OC)[C@@H](C)CN(C(=O)c1ccccn1)[C@@H](C)CO2
  A = 2; B = 1; C = -0.5; D = 26*
> C[C@@H]1CN([C@H](C)CO)S(=O)(=O)c2ccc(C#CC(C)(C)O)cc2O[C@@H]1CN(C)C(=O)C1CCC1
  A = 2; B = 2; C = -0.1; D = -1.8
> COc1ccccc1-c1cnc2c(c1)C(=O)N([C@H](C)CO)C[C@H](C)[C@H](CN(C)Cc1cncnc1)O2
  A = 3; B = 2; C = -0.1; D = -2.5
> CO[C@H]1CN(C)C(=O)c2cc(NS(C)(=O)=O)ccc2OC[C@H](C)N(CC2CCOCC2)C[C@H]1C
  A = 2; B = 4; C = -3.1; D = 2.4
> CC1(Cc2ccccc2OC(F)(F)F)C(=O)Nc2cc(-c3ccccc3Cl)ccc21 (configuration not stated)
  A = 3; B = -3; C = -0.8; D = 5.1
> CCOC(=O)[C@]12CCCC=C1N(CCC1=CCCCC1)C(=O)[C@H](CC(=O)NCc1ccccc1)C2
  A = -3; B = -12; C = 2.2; D = 0.1
> CC(C)CC#Cc1ccc2c(c1)O[C@@H](CN(C)C(=O)Cc1ccccc1)[C@@H](C)CN([C@@H](C)CO)S2(=O)=O
  A = -2; B = -5; C = 5.1; D = -5.1
> O=C(C[C@@H]1CC[C@H]2[C@@H](COC[C@@H](O)CN2C(=O)c2ccccc2F)O1)N1CCCCC1
  A = 2; B = 4; C = -3.7; D = 0.7
> Cc1ccc(Cc2c(-c3cccc(Br)c3)nc3cc(C)c(Br)c(C)n23)cc1
  A = -5; B = 5; C = -0.9; D = -1.5
> CCCN1C[C@@H](C)[C@@H](OC)CN(C)C(=O)c2ccc(NC(=O)C3CCOCC3)cc2OC[C@@H]1C
  A = -1; B = 3; C = -1.9; D = -1.7
> CN(C)CC#Cc1ccc([C@@H]2[C@H]3CN(C(=O)Nc4cc(F)ccc4F)CCCCN3[C@H]2CO)cc1
  A = -4; B = -1; C = -2.1; D = 4.9
> C[C@H]1CN([C@@H](C)CO)C(=O)c2cccc(NS(C)(=O)=O)c2O[C@@H]1CN(C)Cc1ccncc1
  A = 5; B = 9; C = -2.5; D = -3.3
> COc1cccc(NC(=O)N(C)C[C@@H]2OCc3ccccc3-c3ccccc3C(=O)N([C@@H](C)CO)C[C@H]2C)c1
  A = -1; B = -5; C = -0.4; D = 1.2
> C[C@H]1CN([C@@H](C)CO)C(=O)c2cccc(NC(=O)c3ccncc3)c2O[C@H]1CN(C)S(=O)(=O)c1cccs1
  A = 1; B = 8; C = -1.4; D = -2.0
> O=C(NCc1ccccc1)c1cc(C2CCCN(C(=O)CCCc3ccccc3)C2)on1 (configuration not stated)
  A = -15; B = -40; C = -2.0; D = -2.3

# Compound profiles, from the list above:
# Entry for C[C@H](CO)N1C[C@H](C)[C@@H](CN(C)Cc2cccc(F)c2)Oc2ncc(C3=CCCC3)cc2C1=O : Ecoli rRNA inh = -2; Ecoli rRNA inh OD600 = -5; Ecoli rRNA inh RFP = 8.4; AF4-AF9 inh = 3.7
# Entry for C[C@H]1CN([C@@H](C)CO)C(=O)c2cccc(NS(C)(=O)=O)c2O[C@@H]1CN(C)Cc1ccncc1 : Ecoli rRNA inh = 5; Ecoli rRNA inh OD600 = 9; Ecoli rRNA inh RFP = -2.5; AF4-AF9 inh = -3.3

# Structures shown so far with a furan ring, fused or not:
# Short forms: A = Ecoli rRNA inh; B = Ecoli rRNA inh OD600; C = Ecoli rRNA inh RFP; D = AF4-AF9 inh
> CC[C@]12c3[nH]c4ccc(Cl)cc4c3CCN1C(=O)[C@@H](CC(=O)NCCCOC)C[C@@H]2C(=O)N1CCN(C(=O)c2ccco2)CC1
  A = 5; B = 6; C = 0.2; D = 2.0
> O=C(C(=O)N1CCC(CNC(=O)c2cccs2)CC1)c1cc2ccccc2o1
  A = -8; B = -14; C = -3.4; D = -0.2

# (more compounds)
# Short forms: A = Ecoli rRNA inh; B = Ecoli rRNA inh OD600; C = Ecoli rRNA inh RFP; D = AF4-AF9 inh
> CCCNC(=O)N1[C@@H](C#N)[C@H](c2ccc(C#Cc3ccc(F)cc3)cc2)[C@@H]1CO
  A = -48; B = -78; C = -10; D = -2.3
> C[C@H]1CN([C@@H](C)CO)C(=O)c2cc(C#Cc3ccccc3)cnc2O[C@H]1CN(C)C(=O)c1ccccn1
  A = 4; B = 8; C = -1.5; D = -14
> C[C@@H]1CN([C@H](C)CO)C(=O)c2cc(NC(=O)CCC(F)(F)F)ccc2O[C@@H](C)CCCCO[C@@H]1CN(C)C(=O)CCC(F)(F)F
  A = -1; B = 4; C = -0.8; D = -2.4
> COc1ccc(-c2ccc([C@H]3[C@@H](CO)N4C(=O)CNC[C@@H]34)cc2)cc1
  A = 3; B = 12; C = 0.3; D = -5.6
> C[C@H](CO)N1C[C@H](C)[C@H](CN(C)Cc2ccc(Cl)c(Cl)c2)Oc2ccc(NC(=O)C3CC3)cc2CC1=O
  A = -7; B = -30; C = 30; D = -2.8
> C[C@H]1CN([C@@H](C)CO)C(=O)c2cc(NC(=O)Cc3ccccc3)ccc2O[C@H]1CN(C)S(C)(=O)=O
  A = 4; B = 6; C = -0.3; D = -3.1
> C[C@H]1CN([C@@H](C)CO)C(=O)c2cc(NC(=O)Cn3cnnn3)ccc2O[C@@H]1CN(C)S(=O)(=O)c1ccc(F)cc1
  A = 4; B = 16; C = -4.2; D = -2.6
> CC(C)NC(=O)NCC[C@H]1CC[C@H](NS(=O)(=O)c2ccc(Oc3ccccc3)cc2)[C@H](CO)O1
  A = -1; B = -15; C = 0.8; D = 2.3
> CC(=O)NC[C@H]1[C@@H](c2ccc(C3=CCCC3)cc2)[C@@H](CO)N1C(=O)C1CC1
  A = -1; B = 12; C = -1.3; D = -1.9
> O=C(Nc1ccccc1F)N[C@H]1CC[C@H](CCNC(=O)C2CCCCC2)O[C@H]1CO
  A = -2; B = -1; C = -4.5; D = -1.4
> CCOC(=O)C1(C)CCN1C(=O)c1ccccc1Br (configuration not stated)
  A = 12; B = 15; C = -1.0; D = -1.1
> CO[C@H]1CN(C)C(=O)c2ccc(NS(=O)(=O)c3ccc(Oc4ccccc4)cc3)cc2OC[C@H](C)NC[C@@H]1C
  A = -1; B = 3; C = 2.3; D = 0.7

# Not all compounds are listed (hit frequency here may not be typical).
